# Mtb betalactam: beta-lactam sensitization of Mtb H37Rv; M. tuberculosis H37Rv growth with meropenem, percent inhibition; hits of this screen are not shown here; inhibition, % at 25 µM; actives 0.27% (n = 330,000); AID 434955;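 active = about 74% or more and at least 40 points above the plate without the antibiotic, then above 30% in a dose series; inconclusive = first-round hits that could not be retested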;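 also: growth measured after seven days incubation then overnight dye step; 0% = bacteria only wells and 100% = bacteria with antibiotic; twin plates without the antibiotic show which effects depend on it; some results filed as inactive read as strong as hits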
# Mtb H37Rv: M. tuberculosis H37Rv growth inhibitors, H37Rv strain (AID 1626); M. tuberculosis H37Rv growth inhibition; higher % means a stronger effect; inhibition, % at 10 µM, or IC50 in µM where a hit was titrated; actives 0.95% (n = 220,000);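 active = confirmed in a dose series; inconclusive = inhibition above 80% but not taken into the dose series; inactive = below 80% or under 30% at every dose of the series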;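 also: bacteria incubated seven days before Alamar blue readout; 0% = bacteria only wells and 100% = bacteria with antibiotic wells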
# YopH PTP inh: YopH (Yersinia) phosphatase inhibition; fluorescence Ex485/Em525; inhibition, %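 (about 10 µM by stock and volumes)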; actives 0.16% (n = 140,000); AID 898;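 active = inhibition of 50% or more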;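 also: controls were vehicle for no effect and minimum signal wells for full effect; inactives centre near -20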
# Arbovirus inh: blocks arbovirus infection. actives 0.37% (n = 200,000). arbovirus infection cell-based antiviral screen. inhibition, % at 10 µM. AID 1251;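 active = inhibition from about 30%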;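 also: bluetongue infection of BSR cells; cell survival read as ATP light after 72 h; 0% = infected wells without compound and 100% = uninfected wells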
# RecA splice inh: blocks M. tuberculosis RecA intein splicing | cell-free RecA intein splicing, fluorescence | inhibition, %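 (about 9 µM by stock and volumes)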 | actives 0.75% (n = 290,000) | AID 2221; in the data active = inhibition above about 30%; inconclusive = no clear call, values can overlap the other calls;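 also: 0% = vehicle wells and 100% = reference inhibitor control wells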
# Target sequence (P9WHJ3 whole entry, looked up, canonical isoform): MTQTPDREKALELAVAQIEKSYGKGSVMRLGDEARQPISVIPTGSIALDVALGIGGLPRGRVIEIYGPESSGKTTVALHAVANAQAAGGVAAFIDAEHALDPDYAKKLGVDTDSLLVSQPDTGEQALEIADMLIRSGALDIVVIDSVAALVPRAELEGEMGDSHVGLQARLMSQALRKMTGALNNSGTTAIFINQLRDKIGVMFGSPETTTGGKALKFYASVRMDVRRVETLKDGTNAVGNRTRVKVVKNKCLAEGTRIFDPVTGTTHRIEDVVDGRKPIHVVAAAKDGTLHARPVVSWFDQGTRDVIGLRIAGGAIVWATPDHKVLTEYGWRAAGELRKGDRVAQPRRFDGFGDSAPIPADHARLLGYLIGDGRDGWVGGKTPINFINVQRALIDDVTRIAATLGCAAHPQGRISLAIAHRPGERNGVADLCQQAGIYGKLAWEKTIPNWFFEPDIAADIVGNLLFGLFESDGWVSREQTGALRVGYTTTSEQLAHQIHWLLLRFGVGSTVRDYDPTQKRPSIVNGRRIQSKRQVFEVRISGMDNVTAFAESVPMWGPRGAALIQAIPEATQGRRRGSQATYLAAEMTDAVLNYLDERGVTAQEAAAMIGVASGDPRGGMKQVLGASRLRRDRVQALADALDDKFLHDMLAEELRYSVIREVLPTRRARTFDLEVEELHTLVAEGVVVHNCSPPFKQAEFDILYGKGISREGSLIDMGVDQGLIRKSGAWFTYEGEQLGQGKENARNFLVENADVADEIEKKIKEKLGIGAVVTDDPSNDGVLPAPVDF
# Arbovirus inh repeat: further read-out of Arbovirus inh, marked with its call; inhibition, %; measured here: 10K subset replicate screen; many hits read low in the repeat;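 first of two repeat runs on a subset; 0% = infected and 100% = uninfected wells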
# * hit, by the source's call; ? = inconclusive; . = not tested or not shown.
SMILES,Mtb betalactam,Mtb H37Rv,YopH PTP inh,Arbovirus inh,RecA splice inh,others
CN1CCN(CCCNC(=O)c2cc3c(-c4ccc(Cl)cc4)nn(C)c3s2)CC1,70,61%,-36,-27,0.4,Arbovirus inh repeat=-27
CCOC(CNC(=O)C(=O)Nc1cc2c3c(c1)CCC(=O)N3CCC2)OCC,-12,.,.,.,-4.1,
O=C(NC1CCCCC1)C(c1ccco1)N(Cc1cccs1)C(=O)Cn1nnc2ccccc21 (stereo not given),-4,.,-7,.,.,
COc1ccc(N=N/C(C(C)=O)=C(/C)O)cc1,-2,-3%,.,.,3.4,
C/C(=N\N=C(N)N)c1ccc(Cl)c(Cl)c1,-8,3%,.,-21,3.6,
Cc1ccccc1C(=O)Nc1ccc(C(=O)O)cc1NC(=O)c1ccccc1C,0,.,.,.,2.2,
CCn1c(-c2ccc3[nH]c(C)c(C)c3c2)n[nH]c1=S,-2,5%,-24,1,-5.2,
CC(=O)C1C(=O)CC(C)(O)C(C(C)=O)C1c1ccc(N(C)C)cc1 (stereo not given),-10,-6%,0,-3,-5.9,
O=C(O)CCc1ccc(-c2ccc(F)cc2)n1NC(=O)c1ccco1,0,0%,-22,0,-0.5,
Cc1cc(C(=O)CN2C(=O)NC(c3ccccc3)(c3ccccc3)C2=O)c(C)n1Cc1ccccc1,92,4%,17,1,8.7,
Cc1nn(Cc2c(Cl)cccc2Cl)c(C)c1N,-8,-2%,35,-4,-0.7,
C=C1CCN([C@H](C(=O)OCc2cccc(C)c2)C(C)C)S(=O)(=O)c2ccccc21,-13,-11%,.,.,6.2,
COc1ccc(-c2noc(COc3ccc(C)c(C)c3)n2)cc1OC,-16,-6%,-7,-2,-1.2,
CC(=O)CSc1nnc(C(F)(F)F)n1C,-5,-9%,.,.,-5.9,
COC(=O)c1ccc(CSc2n[nH]c(C)n2)o1,5,2%,-33,-1,-2.0,
Cc1cc(C)n(CC(O)COc2ccc(Cl)cc2)n1 (stereo not given),8,.,.,.,0.5,
CCc1ccc(OCC(=O)N(C)CCC#N)c(Br)c1,4,0%,-6,6,-1.6,
COc1cccc(C2CC(c3cccs3)Nc3ncnn32)c1 (stereo not given),-3,.,-23,-4,4.5,
COc1ccccc1NC(=O)Cc1csc(NC(=S)Nc2ccc(C)cc2)n1,6,-1%,-12,19,3.4,
CC(C)CC(=O)Nc1cc2c3c(c1)CCN3C(=O)CC2,1,.,.,.,-6.6,
Cc1nnc(N2C(=O)c3cccc4cccc(c34)C2=O)s1,-9,-10%,-10,9,-1.4,
CN(Cc1ccon1)C(=O)CC1C(=O)NCCN1Cc1cccc(F)c1F (stereo not given),-12,.,.,.,-1.3,
CCOC(=O)/C(=C\c1ccc(OC)c(OC)c1)C(=O)c1cccnc1,0,.,.,.,-2.2,
CSc1nc2c(cc1C#N)C(=O)CC(C)(C)C2,2,.,.,1,1.9,
O=C(NC(=S)Nc1ccc(N2CCOCC2)cc1)c1cccc(Cl)c1Cl,1,.,.,.,-2.2,

# Among those listed so far, these have a Cl atom:
SMILES,Mtb betalactam,Mtb H37Rv,YopH PTP inh,Arbovirus inh,RecA splice inh,others
CN1CCN(CCCNC(=O)c2cc3c(-c4ccc(Cl)cc4)nn(C)c3s2)CC1,70,61%,-36,-27,0.4,Arbovirus inh repeat=-27
C/C(=N\N=C(N)N)c1ccc(Cl)c(Cl)c1,-8,3%,.,-21,3.6,
Cc1nn(Cc2c(Cl)cccc2Cl)c(C)c1N,-8,-2%,35,-4,-0.7,
Cc1cc(C)n(CC(O)COc2ccc(Cl)cc2)n1 (stereo not given),8,.,.,.,0.5,
O=C(NC(=S)Nc1ccc(N2CCOCC2)cc1)c1cccc(Cl)c1Cl,1,.,.,.,-2.2,

# Among those listed so far, three contain an aryl thioether with sulfur outside any ring:
SMILES,Mtb betalactam,Mtb H37Rv,YopH PTP inh,Arbovirus inh,RecA splice inh,others
CC(=O)CSc1nnc(C(F)(F)F)n1C,-5,-9%,.,.,-5.9,
COC(=O)c1ccc(CSc2n[nH]c(C)n2)o1,5,2%,-33,-1,-2.0,
CSc1nc2c(cc1C#N)C(=O)CC(C)(C)C2,2,.,.,1,1.9,

# Next records follow.
SMILES,Mtb betalactam,Mtb H37Rv,YopH PTP inh,Arbovirus inh,RecA splice inh,others
CCO[C@@H]1OC(C(=O)N2CCN(Cc3ccccc3)CC2)=C[C@H](C)[C@H]1CCCO,-9,3%,.,1,-0.6,
CCC(NC(=O)c1ccccc1NC(=O)c1ccco1)C(=O)NC1CCCCC1 (stereo not given),-3,.,-31,0,-1.9,Arbovirus inh repeat=-3
O=C(NNC(=O)c1ccc(-c2ccccc2)cc1)Nc1ccccc1F,-4,.,.,.,-0.1,
NC(=O)CN1C(=O)C2C3C=CC(C3)C2C1=O (stereo not given),3,-5%,-40,8,1.6,
O=C(CN(c1ccccc1)S(=O)(=O)c1ccc(Cl)cc1)Nc1cccnc1,-1,.,.,.,1.0,
Cc1c(=O)n(OCc2ccccn2)c2ccccc2[n+]1[O-],-11,0%,5,0,0.1,
CC(C)c1ccc(N2C(=O)CC(=O)NC2=O)cc1,3,.,.,.,0.3,
COc1ccc(CNC(=O)N2CCN(c3cccc(Cl)c3)CC2)cc1OC,-2,.,.,.,-0.1,
COc1cc(-c2nc3ccc4ccccc4c3c3c2CCC3)cc(OC)c1O,96,13µM*,-19,-32,10,
CCn1ccnc1CNC(=O)C1CCC(=O)N(Cc2ccccc2F)C1 (stereo not given),3,.,.,.,-0.3,
O=C(CC1S/C(=N/N=C/c2cccs2)NC1=O)Nc1ccc(Cl)c(Cl)c1 (stereo not given),59,?,-24,-8,-2.2,
CCCCNC(=O)C(=O)NCc1ccncc1,-6,-1%,.,.,4.4,
CCN(C(=O)N1CCOCC1)c1ccccc1C,4,.,.,.,-2.3,
O=C1CCCN1CCC1CCN(C(=O)Nc2ccccc2)CC1,-6,-2%,0,-3,-0.3,
Cc1c(CN2CCC(n3nccc3NC(=O)C3CC3)CC2)[nH]c2ccccc12,-6,.,.,.,-2.4,
O=C(NCCS(=O)(=O)NC1CCCC1)c1ccc(F)cc1,2,.,.,.,-2.0,
N#CC(C#N)=C1C=CC=CN1/C(=C\c1ccco1)C(=O)c1ccc(Br)cc1,-5,1%,-19,-48,.,
CCOC(=O)C1CCN(C(=O)c2ccccc2NS(=O)(=O)c2ccc(F)cc2)CC1,9,-1%,-24,4,0.1,
NS(=O)(=O)c1ccc(CCNC(=O)CNCCc2ccc(C(F)(F)F)cc2)cc1,-1,.,.,.,1.9,
C=CCN1C(=O)c2ccc(C(=O)N(C)CC(=O)Nc3ccccc3Cl)cc2C1=O,-4,.,.,.,-2.5,
O=S(=O)(/C=C/c1ccccc1)NC1CCCCCC1,5,-5%,.,5,0.6,
CC(C)c1ccc(NC(=O)C[n+]2ccn(C3=C([O-])c4ccccc4C3=O)c2)cc1,1,1%,.,20,0.2,
NNC(=O)c1snnc1-c1ccccc1,-1,-7%,.,.,3.4,
CCn1c(CNC(=O)c2ccccc2F)nnc1SCC(=O)NC1CCCCC1,-11,-4%,.,-1,-0.1,
Cc1[nH]c2ccccc2c1C(=O)C(=O)N1CC=C(c2ccccc2)CC1,2,2%,-10,-2,2.0,
COC(=O)c1sc(NC(=O)C2c3ccccc3Oc3ccccc32)c(C(=O)OC)c1C,4,8%,-28,12,-1.2,

# Pulled by compound from the list above (3):
SMILES,Mtb betalactam,Mtb H37Rv,YopH PTP inh,Arbovirus inh,RecA splice inh,others
COC(=O)c1sc(NC(=O)C2c3ccccc3Oc3ccccc32)c(C(=O)OC)c1C,4,8%,-28,12,-1.2,
O=C1CCCN1CCC1CCN(C(=O)Nc2ccccc2)CC1,-6,-2%,0,-3,-0.3,
NS(=O)(=O)c1ccc(CCNC(=O)CNCCc2ccc(C(F)(F)F)cc2)cc1,-1,.,.,.,1.9,

# Entries above that have bromine, in the order listed:
SMILES,Mtb betalactam,Mtb H37Rv,YopH PTP inh,Arbovirus inh,RecA splice inh,others
CCc1ccc(OCC(=O)N(C)CCC#N)c(Br)c1,4,0%,-6,6,-1.6,
N#CC(C#N)=C1C=CC=CN1/C(=C\c1ccco1)C(=O)c1ccc(Br)cc1,-5,1%,-19,-48,.,

# Screening results from PubChem.

# A portion of the library. The share of hits here may be higher or lower than overall.
